Screening data from PubChem BioAssay.
MenB inh: M. tuberculosis MenB inhibitors, primary screen, biochemical, absorbance; 1,4-dihydroxy-2-naphthoyl-CoA synthase (Mycobacterium tuberculosis (strain ATCC 25618 / …; MenB enzyme assay, absorbance read-out; some hits fall short of the stated cut; inhibition, %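 (about 12 µg/mL by stock and volumes)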; 100,000 compounds, 0.43% hits;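 active = mean of two replicates above 30%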;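 also: 0% = no compound and 100% = wells with inactive enzyme; the first replicate is given; strong numbers were not always called active; inactives centre near -10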
Target sequence (P9WNP5 whole entry, looked up): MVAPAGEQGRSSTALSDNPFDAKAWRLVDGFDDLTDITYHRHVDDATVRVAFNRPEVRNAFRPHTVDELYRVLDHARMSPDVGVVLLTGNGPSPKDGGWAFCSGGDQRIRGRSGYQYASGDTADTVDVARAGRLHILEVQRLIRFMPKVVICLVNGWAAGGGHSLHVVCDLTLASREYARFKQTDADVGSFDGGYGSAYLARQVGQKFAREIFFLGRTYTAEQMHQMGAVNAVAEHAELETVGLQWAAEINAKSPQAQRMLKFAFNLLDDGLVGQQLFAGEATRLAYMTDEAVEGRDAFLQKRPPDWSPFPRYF
Mtb MbtI inh: MbtI salicylate synthase inhibitors, primary screen, biochemical, fluorescence intensity; P9WFX0; purified MbtI enzyme, fluorescence intensity read-out; inhibition, %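 (about 17 µg/mL by stock and volumes)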; 100,000 compounds, 0.89% hits; AID 493033, 2011;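 active = above 50% in both replicates, above 80% if mildly self-fluorescent; inactive = the rest, strongly fluorescent compounds included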;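 also: 0% = mean of negative and 100% = mean of positive controls; one replicate is shown; some compounds called inactive have numbers as strong as hits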
PV pol inh: poliovirus RdRp elongation inhibitors, primary screen, biochemical, fluorescence polarization, total intensity. Genome polyprotein (Poliovirus type 1 (strain Mahoney)), P03300. poliovirus polymerase elongation; active compounds read low. % elongation, % (compound at 16.7 µg/mL). 150,000 compounds, 0.66% hits. AID 588519, 2011; in the data active = % elongation below about 90%; also: some results filed as inactive read as strong as hits
Target sequence (P03300 1749-2209 limits assumed): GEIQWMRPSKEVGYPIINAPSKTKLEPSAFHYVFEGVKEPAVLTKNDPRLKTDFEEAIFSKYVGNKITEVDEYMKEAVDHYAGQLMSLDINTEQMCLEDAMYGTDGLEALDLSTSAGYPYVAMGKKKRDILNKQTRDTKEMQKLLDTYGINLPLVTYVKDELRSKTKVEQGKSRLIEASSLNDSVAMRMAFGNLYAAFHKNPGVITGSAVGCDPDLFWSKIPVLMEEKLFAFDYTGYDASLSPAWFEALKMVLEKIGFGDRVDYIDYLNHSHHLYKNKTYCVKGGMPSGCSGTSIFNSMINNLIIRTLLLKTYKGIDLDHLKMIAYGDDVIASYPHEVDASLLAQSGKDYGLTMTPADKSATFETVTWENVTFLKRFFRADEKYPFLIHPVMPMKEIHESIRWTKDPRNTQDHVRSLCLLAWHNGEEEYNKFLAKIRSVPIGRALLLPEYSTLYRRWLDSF
PV pol inh intensity: further read-out of PV pol inh, marked with its call; % elongation; measured here: total intensity read-out; formula for this scale not given here;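 total fluorescence in place of polarization; lower means less elongation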
The depositor's hits bear a star; i = inactive; nt = not tested or not shown.

Start of the data: the first 24 compounds, to show the layout:
Value order: MenB inh	Mtb MbtI inh	PV pol inh	PV pol inh intensity
> S=C(Nc1ccccc1)N1CCCC1
  -20	-14	102	103
> CCN(c1ccccc1)S(=O)(=O)c1ccc(CCN2C(=O)c3cccnc3C2=O)cc1
  -18	-5	103	107
> Nc1cc(N)nc(SCC(=O)Nc2ccccc2)n1
  31	-1	102	101
> Cc1c(Cl)cccc1NC(=S)NCc1cccn1C
  -25	0	101	96
> CC(C)OC(=O)CCN1C(=O)/C(=C/c2ccccc2)SC1=S
  -1	-1	100	102
> O=C(NCc1cccc2ccccc12)C(c1ccccc1)c1ccccc1
  5	nt	102	105
> O=C(CSc1n[nH]c(-c2ccncc2)n1)N(c1ccccc1)C1CCCCC1
  -5	-7	101	101
> Cc1nc2cccc(C(=O)O)c2o1
  -1	nt	102	108
> Nc1nnc(SCC(=O)NCc2ccco2)s1
  -20	nt	100	108
> CC(O)C(O)(c1ccccc1)c1ccccc1 (stereo not given)
  -46	2	98	98
> Cc1nc2ccccc2c2oc(C(=O)NCc3ccc(Cl)cc3)cc12
  -51	16	101	97
> COc1ccccc1OCCSc1nc(C)cc(C)n1
  -54	-14	102	103
> O=C(Nc1ccc(S(=O)(=O)NC2=NCCCCC2)cc1)c1cccs1
  -17	6	99	105
> CCOC(=O)NN1CC(O)=C(c2nc3ccccc3n2C)C1=N
  -18	8	100	117
> Cc1cc(-c2onc(C)c2-c2noc(C)n2)no1
  -13	5	103	97
> Cc1c(C(=O)NCCc2ccc(S(N)(=O)=O)cc2)sc2nc(-c3ccccc3)cn12
  -26	-1	103	105
> CN(C)C(=O)Cn1c(=O)cnc2ccccc21
  -17	126	100	107
> CC1CC(C)CN(C(=O)C(C)Sc2nnnn2-c2ccc(Cl)cc2)C1 (stereo not given)
  -12	-2	nt	nt
> O=C(COC(=O)c1cccnc1Cl)c1ccc(F)cc1
  nt	-5	101	105
> O=C1CCC/C(=N/NC(=O)c2ccc(NS(=O)(=O)c3cccs3)cc2)C1
  -12	4	99	99
> CN(C(=O)COC(=O)c1ccccc1NS(C)(=O)=O)C1(C#N)CCCCC1
  -1	-35	106	105
> Cc1ccc(CCNc2ccccc2C)cn1
  -17	-2	104	103
> COC(=O)c1ccc(NC(=O)CSC2=Nc3ccccc3C3CC=NN23)cc1 (stereo not given)
  -83	-1	nt	nt
> O=C(Cn1c(=O)n(Cc2ccco2)c(=O)c2sc3ccccc3c21)NCc1ccccc1
  19	13	98	103

All compounds of this part, from the first entry:
Value order: MenB inh	Mtb MbtI inh	PV pol inh	PV pol inh intensity
> S=C(Nc1ccccc1)N1CCCC1
  -20	-14	102	103
> CCN(c1ccccc1)S(=O)(=O)c1ccc(CCN2C(=O)c3cccnc3C2=O)cc1
  -18	-5	103	107
> Nc1cc(N)nc(SCC(=O)Nc2ccccc2)n1
  31	-1	102	101
> Cc1c(Cl)cccc1NC(=S)NCc1cccn1C
  -25	0	101	96
> CC(C)OC(=O)CCN1C(=O)/C(=C/c2ccccc2)SC1=S
  -1	-1	100	102
> O=C(NCc1cccc2ccccc12)C(c1ccccc1)c1ccccc1
  5	nt	102	105
> O=C(CSc1n[nH]c(-c2ccncc2)n1)N(c1ccccc1)C1CCCCC1
  -5	-7	101	101
> Cc1nc2cccc(C(=O)O)c2o1
  -1	nt	102	108
> Nc1nnc(SCC(=O)NCc2ccco2)s1
  -20	nt	100	108
> CC(O)C(O)(c1ccccc1)c1ccccc1 (stereo not given)
  -46	2	98	98
> Cc1nc2ccccc2c2oc(C(=O)NCc3ccc(Cl)cc3)cc12
  -51	16	101	97
> COc1ccccc1OCCSc1nc(C)cc(C)n1
  -54	-14	102	103
> O=C(Nc1ccc(S(=O)(=O)NC2=NCCCCC2)cc1)c1cccs1
  -17	6	99	105
> CCOC(=O)NN1CC(O)=C(c2nc3ccccc3n2C)C1=N
  -18	8	100	117
> Cc1cc(-c2onc(C)c2-c2noc(C)n2)no1
  -13	5	103	97

Fetched by compound from the list above, two records:
Value order: MenB inh	Mtb MbtI inh	PV pol inh	PV pol inh intensity
> COc1ccccc1OCCSc1nc(C)cc(C)n1
  -54	-14	102	103
> CC(O)C(O)(c1ccccc1)c1ccccc1 (stereo not given)
  -46	2	98	98

The list continues:
Value order: MenB inh	Mtb MbtI inh	PV pol inh	PV pol inh intensity
> Cc1c(C(=O)NCCc2ccc(S(N)(=O)=O)cc2)sc2nc(-c3ccccc3)cn12
  -26	-1	103	105
> CN(C)C(=O)Cn1c(=O)cnc2ccccc21
  -17	126	100	107
> CC1CC(C)CN(C(=O)C(C)Sc2nnnn2-c2ccc(Cl)cc2)C1 (stereo not given)
  -12	-2	nt	nt
> O=C(COC(=O)c1cccnc1Cl)c1ccc(F)cc1
  nt	-5	101	105
> O=C1CCC/C(=N/NC(=O)c2ccc(NS(=O)(=O)c3cccs3)cc2)C1
  -12	4	99	99
> CN(C(=O)COC(=O)c1ccccc1NS(C)(=O)=O)C1(C#N)CCCCC1
  -1	-35	106	105
> Cc1ccc(CCNc2ccccc2C)cn1
  -17	-2	104	103
> COC(=O)c1ccc(NC(=O)CSC2=Nc3ccccc3C3CC=NN23)cc1 (stereo not given)
  -83	-1	nt	nt
> O=C(Cn1c(=O)n(Cc2ccco2)c(=O)c2sc3ccccc3c21)NCc1ccccc1
  19	13	98	103
> CC(C)[C@H](NC(=O)COc1ccc2ccccc2c1)C(=O)O
  -32	-5	101	105
> Cc1ccc2nc3ccc(N4CCC(Cc5ccccc5)CC4)nn3c(=O)c2c1
  -14	-6	104	105
> O=C(CC1C(=O)N(Cc2ccccc2)C(=S)N1CCc1ccc(Cl)cc1)Nc1ccccc1 (stereo not given)
  -8	-56	102	102
> O=C(COc1ccc(-c2nnco2)cc1)Nc1ccc2c(c1)OC(F)(F)O2
  -24	1	102	103
> Cn1cccc1/C=C/C(=O)O
  -21	11	76*	75*
> Cc1nc2cc(NC(=O)N3CCCC3)ccc2n1C
  -5	24	104	103

Next part:
Value order: MenB inh	Mtb MbtI inh	PV pol inh	PV pol inh intensity
> CN(Cc1ccc(Cl)c(Cl)c1)CN1C(=O)NC2(CCCC2)C1=O
  -18	-6	108	108
> O=C(Nc1ccccc1)/C(=C/c1ccccc1)NC(=O)c1ccccc1
  -1	6	99	102
> O=C(CN1C(=O)c2ccccc2C1=O)ON1C(=O)CCC1=O
  5	-7	100	103
> CC[n+]1ccc(/C=C/c2ccc(OC)c(OC)c2OC)cc1
  -99	nt	102	107
> CC(NCCN1C(=O)S/C(=C\c2ccc(C)cc2)C1=O)=C(C#N)C#N
  -22	11	nt	nt
> Cc1ccc(C)c(N2CCN(CCCNC(=O)c3nnc(Cc4c(F)cccc4Cl)o3)CC2)c1
  -10	-9	100	101
> O=c1[nH]cc(C(F)(F)F)cc1Cl
  5	20	100	99
> Brc1ccc(C=Nc2cccc3ccccc23)s1
  -24	nt	103	103
> O=S(=O)(c1cccc(CSc2nnc(-c3cccs3)n2-c2ccccc2)c1)N1CCOCC1
  17	-6	104	98
> N#Cc1cccc(CSc2nnc(SCc3cccc(C#N)c3)s2)c1
  -34	2	105	112
> CCOc1ccc(C=Nc2ccc(C(=O)O)cc2)c(O)c1
  -9	0	101	102
> COc1ccccc1C(=O)Nc1nn2c(-c3ccccc3C)nnc2s1
  -22	-13	103	108
> Cc1cccc(N2CCN(C(=O)CC3(CC4=NS(=O)(=O)c5ccccc5N4)CCCC3)CC2)c1C
  -22	9	101	103
> Cc1noc(C)c1CCNC(=O)c1ccc(NC(=O)C2=CSCCO2)cc1
  -7	0	100	102
> Cc1nc2cc(-c3ccccc3)nn2c(C)c1CCC(=O)N1CCCC1
  -12	29	100	104

Other results
structure	MenB inh	Mtb MbtI inh	PV pol inh	PV pol inh intensity
Cc1cc(C)cc(NC(=O)C2CC2C)c1 (stereo not given)	-19	3	104	107
COc1ccc(NC(=O)N2CCCC2C(=O)Nc2ccccc2)cc1 (stereo not given)	4	-8	100	102
Cn1nc(-c2ccccc2)ccc1=O	9	-1	100	103
O=C1NC(c2ccccc2)(C(F)(F)F)SC2=NCCCN12 (stereo not given)	-12	-7	103	105
COc1ccccc1C(=O)COC(=O)Cn1nnc2ccccc21	-3	-6	104	110
CCc1cccc(-n2c(N3CCOCC3)n[nH]c2=S)c1	-27	20	nt	nt
Cc1c(CC(=O)N2CCCC2)c(=O)oc2cc(O)ccc12	12	122	102	103
Cc1noc(C)c1-c1nc(CS(=O)(=O)Cc2ccc(Cl)cc2)no1	12	-14	104	118
CC(C)CNC(=O)c1ccc(COc2ccc(Cl)cc2Cl)o1	-14	7	99	103
O=C(/C=C/c1ccco1)Oc1cccc(Oc2ccccc2)c1	nt	15	100	102
CC1CCCC(C)N1/N=C/c1ccc(C#N)cc1 (stereo not given)	-16	-11	104	99
COc1ccccc1OCCn1cc(/C=C2/SC(=S)NC2=O)c2ccccc21	-94	59*	98	103

The list goes on.
structure	MenB inh	Mtb MbtI inh	PV pol inh	PV pol inh intensity
O=C(CCCn1c(=S)[nH]c2c(sc3ccccc32)c1=O)NC1CCCCCC1	-36	25	100	103
O=C(CSc1nnc(-c2ccc(Cl)cc2)o1)OCC(=O)c1ccccc1	-56	-2	100	96
O=S(=O)(c1cccc(C(F)(F)F)c1)N1CCCC(n2nnc3ccccc32)C1 (stereo not given)	0	-9	100	102
CCCC(C)C(=O)Nc1ccc(-c2nc3ccccc3o2)cc1 (stereo not given)	-78	i	100	101
CC1(C)CC(=O)C2=C(C1)C(c1cccnc1)Nc1ccc3ccccc3c12 (stereo not given)	-17	106	99	98
COc1ccc(/C=C/C(=O)N=c2sccn2C)c(OC)c1	-43	-8	107	99
O=C(c1csc(-c2ccccc2)n1)N1CCN(S(=O)(=O)c2ccc3c(c2)OCCCO3)CC1	-9	-3	103	99
CC(C)c1ccc(NC(=S)Sc2ccc(F)cc2F)cc1	-12	65*	97	109
Cn1ccnc1C1(O)CCNCC1	-29	3	100	102
CS(=O)(=O)CCC(C(=O)Nc1ccccc1)N1Cc2ccccc2C1=O (stereo not given)	-4	-10	101	103
CCOC(=O)C1CCN(C(=O)/C=C/c2ccc(F)cc2)CC1	nt	-4	102	102
Cc1oc2c(c1C(=O)N1CCc3ccccc3C1)C(=O)c1ccccc1C2=O	-12	7	95	96

(listing goes on)
structure	MenB inh	Mtb MbtI inh	PV pol inh	PV pol inh intensity
COc1ccc(Cc2nn3c(-c4cccs4)nnc3s2)cc1OC	-54	57	102	103
CC(C)(C)NC(=O)CN1C2CCC1CC(O)(c1ccc(F)cc1)C2 (stereo not given)	-5	-6	101	100
CCCc1nnc(NC2CCCC2)s1	nt	-2	102	105
Nc1nc(=S)nc(-c2ccncc2)[nH]1	-36	-9	100	106
CC1=NNC(c2ccc(O)cc2)C1 (stereo not given)	-34	0	126	163
CCOC(=O)N1CCC(N2C(=O)c3ccc(C(=O)NCCOC)cc3C2=O)CC1	9	-2	100	101
COCc1cc(=O)oc2cc(OC)ccc12	-11	111	100	101
Cc1nn(-c2ccccc2)c2c1-c1onc(C(=O)NCc3ccco3)c1CC2	-10	1	102	102
CC(CNC(=O)C1CCCN(C(=O)N2CCOc3ccccc32)C1)c1ccccc1 (stereo not given)	4	-18	101	101
COc1cccc(-c2nc(-c3ccccc3)[nH]c2-c2cccc(OC)c2)c1	-26	112	103	101
Cc1cc(C(=O)N2CC(C)CC(C)C2)n[nH]1 (stereo not given)	4	4	102	106
COC(=O)NC(=C(Cl)Cl)c1ccc(C)c(F)c1	nt	-5	98	100
N#Cc1c(N)n[nH]c1CCCCCN=Cc1cc(Br)ccc1O	-21	4	nt	nt
CC(C)(C)C(=O)/C(C#N)=C/c1ccc(C#N)cc1	10	-2	103	104
O=C(Cn1cnnn1)Nc1ccccc1Cc1ccccc1	-11	-4	105	104
